# UUG fidelity – yeast start codon fidelity modulation | S. cerevisiae UUG-firefly luciferase reporter, luminescence/redox ratio | AID 602363 | 350,000 compounds, 0.13% hits | activity score, % at 18.7 µM;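 active = replicate mean at a twofold rise or more, about +100% in these data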;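 note: firefly luciferase made from a UUG start codon reports start codon fidelity; reporter light over untreated wells divided by growth signal over untreated wells; some hits fall short of that in this replicate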
# Rce1 inhib – yeast Ras-converting enzyme inhibition | Q03530 | yeast membranes, quenched prenylated peptide cleavage fluorescence | calls only | 290,000 compounds, 0.27% hits;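 active = fall in fluorescence gain of 50% or more versus controls, with final raw signal at or below 3038400; inconclusive = same 50% fall but final raw signal above 3038400; inactive = fall in fluorescence gain under 50%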;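 note: plate controls were neutral control wells for no effect and wells lacking membranes for full effect; tested at 10 µM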
# Target sequence (Q03530 whole entry, looked up): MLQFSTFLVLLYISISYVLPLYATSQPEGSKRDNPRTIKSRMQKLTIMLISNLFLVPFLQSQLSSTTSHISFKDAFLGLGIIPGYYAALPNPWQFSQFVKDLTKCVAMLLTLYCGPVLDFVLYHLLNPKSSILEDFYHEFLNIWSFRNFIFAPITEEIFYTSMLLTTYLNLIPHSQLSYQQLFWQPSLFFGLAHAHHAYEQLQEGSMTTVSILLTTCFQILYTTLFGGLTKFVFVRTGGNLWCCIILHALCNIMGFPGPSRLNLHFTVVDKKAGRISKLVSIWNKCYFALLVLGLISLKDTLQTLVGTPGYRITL
# eIF4H FP inh – inhibitors of RNA binding by human eIF4H; 290,000 compounds, 0.94% hits; eIF4H fluorescence polarization binding assay; inhibition, % at 35 µM; AID 2012;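 active = 50% or more with normal probe brightness, or confirmed in later tests; inconclusive = above 50% with abnormal brightness, or retests that disagree; inactive = below 50% or failed in later tests; about a fifth of its hits are not listed in these tables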;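 note: calls also rest on retests at 20 µM and on dose response follow-up; 0% = protein and probe with vehicle and 100% = probe without protein; strong numbers were not always called active; many hits fall short of the cut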
# HIV Env fusion – blocks HIV Env-driven cell-cell fusion | HeLa-JRFL Env/CEM21 cell fusion, luciferase | inhibition, % at 12.3 µM | 360,000 compounds, 1.1% hits | AID 651610;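 active = mean replicate inhibition score of at least 50 and every replicate individually at or above 50; inconclusive = only one of the two criteria met; inactive = mean below 50 and not all replicates reaching 50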;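 note: 0% = plate neutral controls and 100% = maraviroc near 300 nM; one replicate is shown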
# MT1-MMP act inh – blocks activation of human MT1-MMP; 360,000 compounds, 0.061% hits; HT1080 RFP-PRO-GFP cells, GFP/RFP ratio fluorescence, overnight; percent of plate control window, DMSO zero; AID 651647; P50281; GFP/RFP ratio change, % at 20 µM;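 active = GFP/RFP ratio change of at least 30% with cell ATP level not reduced by more than half and red fluorescence within 50% of control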; note: strong numbers were not always called active
#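 Assay system: HT1080 cells carrying an RFP-PRO-GFP reporter | Dosing: Single dose of 20 µM compound, 1% DMSO final | Incubation: Cells overnight before dosing, compound overnight, 37 °C, 5% CO2 | Evaluation: GFP/RFP fluorescence ratio | Control set: DMSO and RFP-L50D-GFP cell wells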
# CSC inhib – cancer stem cell inhibition; 300,000 compounds, 1.1% hits; cancer stem cell-like cells viability, luminescence; inhibition, % at 7.5 µM; AID 2717;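 active = mean at 75% or more and at least half the replicates too; inconclusive = mean and replicates disagree; tested in HMLE shEcad cells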;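 note: 0% = median of negative and 100% = median of positive control wells; the first replicate is given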
# PABP FP inh – blocks human PABP binding to poly(A) RNA; P11940; fluorescence polarization; inhibition, % at 35 µM; 290,000 compounds, 1% hits;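 active = 50% or more with normal probe brightness, or confirmed in later tests; inconclusive = above 50% with abnormal brightness, or retests that disagree; inactive = below 50% or failed in later tests; about a fifth of its hits are not listed in these tables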;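 note: calls also rest on retests at 20 µM and on dose response follow-up; controls were probe without protein and protein plus probe with vehicle; some compounds called inactive have numbers as strong as hits; many hits fall short of the cut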
# eIF4H FP inh retest – recorded beside eIF4H FP inh, whose call it bears; inhibition, %; compound at 20 µM; confirmation average;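 mean of two retest wells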
# PABP FP inh retest – recorded beside PABP FP inh, whose call it bears; inhibition, %; compound at 20 µM; confirmation repeats;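 mean of two retest wells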
# MT1-MMP act inh RFP – second read-out of MT1-MMP act inh, no call of its own (marks repeat the call); RFP signal change, %; measured here: RFP expression control read;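 0 = vehicle wells; hits needed this value within 50% of zero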
# * = called active by the depositor; i = inactive; ? = inconclusive; . = no result given; & = joins results of further samples. Compounds as they come; about 3% have a hit in one of these screens.
SMILES,UUG fidelity,Rce1 inhib,eIF4H FP inh,HIV Env fusion,MT1-MMP act inh,MT1-MMP act inh RFP,CSC inhib,PABP FP inh,others
COc1ccc(CN2C(=O)C(CC(=O)NC3CC3)CC(C(=O)N3CCOCC3)=C2C)cc1 (configuration not stated),-8,.,.,11,6,11,.,.,
CN(C)c1ccc(C=NN2C(=O)CSC2=S)c(Cl)c1,-22,.,.,-25,-19,25,.,.,
COc1cc(OC)cc(C(=O)N2CCN(c3ncccn3)CC2)c1,-5,i,-6,-61,4,1,-10,-8,
Nc1c(N(CCC2=CCCCC2)C(=O)Cc2ccccc2F)c(=O)[nH]c(=O)n1Cc1ccccc1,2,.,.,-23,-12,-11,-2,.,
Cc1ccc(NS(=O)(=O)c2cc(C(=O)Nc3cccc([N+](=O)[O-])c3)ccc2C)cc1,-11,i,-9,.,-7,-31,35,34,
CCN1C(=O)C2(C(C(=O)c3ccc(C)o3)=C(O)C(=O)N2CCCN2CCOCC2)c2ccccc21 (configuration not stated),-11,i,0,.,-1,3,-11,30,
C[C@@H](CO)NC(=O)c1ccc2c3n(nc2c1)-c1ccc(Cl)cc1CO3,-2,i,8,-86,5,5,-1,6,
CC(C)CC(=O)N[C@H](C(=O)N[C@H](C(=O)N[C@@H](CC(C)C)[C@@H](O)CC(=O)N[C@@H](C)C(=O)N[C@@H](CC(C)C)[C@@H](O)CC(=O)O)C(C)C)C(C)C,-14&-7,.,-18,19&-12,-2&3,1&3,.,-2,
O=C(Nc1c(-c2ccc3c(c2)OCO3)[nH][nH]c1=O)c1ccccc1,-18,.,.,23,3,4,.,.,
CCCCn1c(N)c(NCCC(C)C)c(=O)[nH]c1=O,-1,.,85,.,1,2,9,-2,eIF4H FP inh retest=0;PABP FP inh retest=-3
C/C(=N\Nc1nc(N)cc(Cl)n1)c1ccc(Cl)c(Cl)c1,.,i,-7,-16,2,-2,2,-4,
COc1ccc(CN2CCC(C(=O)c3ccc(F)cc3)CC2)cc1,-13,i,1,4,-3,-1,6,-7,
Cc1ccc(C(=O)NNC(=O)c2cc(OCC(F)(F)F)ccc2OCC(F)(F)F)cc1,-7,i,-10,10,-3,-4,-4,0,
Cn1c(=O)c2cc(S(=O)(=O)NC(C(=O)NC3CCCCC3)c3ccccc3)ccc2n(C)c1=O (configuration not stated),-1,.,10,-4,2,5,.,4,
O=C(NC1CCCCC1)c1ccccc1NC(=S)NC(=O)C1CCC1,.,i,1,-11,1,0,-12,3,
O=C(COc1ccccc1Cl)c1ccc[nH]1,.,i,?,-25,-3,-2,28,-5,
C=CCNC(=S)N1CCN(c2ccccc2Cl)CC1,.,i,2,7,1,3,-2,14,
COc1ccc(N2CCN(C(=O)c3ccc(S(=O)(=O)N4CCCCCC4)cc3)CC2)cc1,-9,.,.,5,2,-4,.,.,
CCOc1ccc(S(=O)(=O)Nc2cccc(C(=O)N(C)Cc3cccc(OC)c3OC)c2)cc1,7,i,6,24,0,-11,3,-7,
Cc1csc(NS(=O)(=O)c2cccc([N+](=O)[O-])c2)n1,-1,i,-6,-8,-1,2,17,-5,
CC(C)(C)c1ccc(-c2nc(C#N)c(N3CCC(C(N)=O)CC3)o2)cc1,-6,i,-2,0,-1,-2,-14,15,
CCOc1ccc(N2C(=O)CC(N(CCc3ccc(OC)cc3)C(=O)c3cccc(F)c3)C2=O)cc1 (configuration not stated),.,i,-9,17,-1,4,-11,-15,
O=C(Cn1c(=O)cnc2ccccc21)NCC(=O)Nc1ccc(F)c(F)c1,-8,i,.,2,11,-6,8,.,
O=C(O)c1ccc(N/N=C/c2c[nH]c3ccccc23)cc1,-44,i,-2,59*,1,1,-8,3,
Cc1ccc(C(=O)NNC(=O)c2ccc(C)cc2)cc1,.,i,-2,-6,6,5,-4,0,
N=C1C(c2ccccc2)=C(O)CN1NC(=O)c1ccccc1,.,i,4,7,1,5,-3,-6,
O=C(CNC(=O)OCc1ccccc1)Nc1ccc(F)cc1,-9,.,.,7,-5,-1,.,.,
Cc1ccc(-c2noc(CN(C(=O)CCCN3C(=O)c4ccccc4C3=O)C(C)C)n2)cc1,-13,.,.,.,-4,-6,-8,.,
Cc1ccc(S(=O)(=O)n2[nH]c(=O)cc2NC(=O)c2cccs2)cc1,.,i,2,.,.,.,-1,7,
CCN(C(=O)COC(=O)C12CC3CC(CC(NC(C)=O)(C3)C1)C2)C1CCCCC1,2,.,.,2,2,1,.,.,
NC(=O)c1ccc(NC(=O)c2cnc3ccccc3n2)cc1,.,i,-5,-20,0,3,-4,12,
Nc1nccc(/C=C/c2ccc(Cl)cc2)n1,-24,i,-1,-35,2,-1,-7,-9,
O=C1NCC(c2ccccc2)C1C(=O)N/N=C\c1ccc(-c2ccc(Cl)c(Cl)c2)o1 (configuration not stated),-9,i,-10,.,0,-6,27,-12,
Cc1onc(-c2ccccc2)c1C(=O)OCC(=O)N1CCN(c2ccccc2)CC1,-7,i,.,-4,-1,-3,-17,.,
CC1(C)SC(=S)N(NC(=O)Nc2ccccc2)C1N(O)C(=O)Nc1ccccc1 (configuration not stated),-21,i,-5,19,2,6,12,-6,
O=C(NCCc1ccccc1)/C(=C\c1ccc([N+](=O)[O-])cc1)NC(=O)c1ccccc1,-15,i,-10,.,10,-1,4,-2,
CC(C)CNC(CC(=O)Nc1cccc([N+](=O)[O-])c1)C(=O)O (configuration not stated),.,i,-4,.,1,0,0,14,
COc1ccc(NC(=S)NC(NC(=O)c2cccc(C)c2)C(Cl)(Cl)Cl)c([N+](=O)[O-])c1 (configuration not stated),-22,.,-11,-153,12,0,20,-2,
CC(C)[C@H](NS(=O)(=O)c1cccc(Cl)c1)C(=O)OCC(=O)NC(=O)CN1CCCC1=O,-4,.,.,.,1,3,-19,.,
CN(Cc1ccncn1)C(=O)CC1C(=O)NCCN1Cc1cccc(Oc2ccccc2)c1 (configuration not stated),-2,i,28,4,-5,-3,.,14,
O=C(O[C@@H]1Cc2c(O)cc(O)cc2O[C@@H]1c1cc(O)c(O)c(O)c1)c1cc(O)c(O)c(O)c1,.,i,80*,.,.,.,.,53*,
Cc1cc(Nc2c(C)n(C)n(-c3ccccc3)c2=O)n2c(nc3cc(F)c(F)cc32)c1C#N,.,i,12,.,.,.,-4,3,
COC(=O)c1ccc(Cn2c(C)c(C(=O)NCc3ccc([N+](=O)[O-])cc3)sc2=O)o1,-26,.,.,9,5,-10,.,.,
COc1cccc(-n2nc(-c3ccnn3-c3ccc(F)cc3)c(=O)n(C)c2=O)c1,.,i,-12,.,-2,-2,-8,6,
O=C(Cn1sc2ccccc2c1=O)Nc1ccc(F)cc1,-24,.,.,-10,3,4,.,.,
Cn1c(C(=O)NC2CCCCCC2)cc2c(=O)n(C)c3ccccc3c21,2,i,11,-2,11,1,2,-2,
C=CCNC(=O)C1CCN(c2ccc(S(=O)(=O)N3CCOCC3)cc2[N+](=O)[O-])CC1,.,i,0,-12,3,2,-1,-7,
O=C(CCl)Nc1cccn2ncnc12,.,i,-2,.,3,-1,12,18,
Cc1ccc(CNC(=O)CN2CCN(Cc3ccc(Cl)cc3)C2=O)cc1,-4,i,0,.,1,2,-12,-6,
Cc1ccccc1Cn1nnc(-c2cccc(C(=O)O)c2)n1,-37,i,-6,-113,3,2,2,10,

# Next section.
SMILES,UUG fidelity,Rce1 inhib,eIF4H FP inh,HIV Env fusion,MT1-MMP act inh,MT1-MMP act inh RFP,CSC inhib,PABP FP inh,others
O=C(NCc1ccccc1Cl)c1csc([C@@H]2O[C@H](CO)[C@H](O)[C@H](O)[C@H]2O)n1,-26,.,.,-6,-1,2,.,.,
CC(Oc1ccc(Br)cc1)C(=O)Nc1nnc(C2CC2)s1 (configuration not stated),-15,i,.,-3,-4,2,2,.,
COC(=O)c1ccc(-c2ccc(/C=N/N3C(=O)C4C5C=CC(C6CC56)C4C3=O)o2)cc1 (configuration not stated),.,i,10,.,0,3,61,-3,
C[C@H]1CN([C@@H](C)CO)S(=O)(=O)c2ccc(Br)cc2O[C@@H]1CN(C)C(=O)CCN1CCCCC1,6&0,.,.,-2,2,4,.,.,
CO/N=C(\c1nonc1N)N1CCN(c2ccc(Cl)cc2[N+](=O)[O-])CC1,10,i,4,-90,9,-8,16,8,
CC(=O)n1cc(C2C(=O)CCCC2=O)c2ccccc21,-1,i,-1,.,1,4,-12,6,
COc1ccc(NC(=O)c2ccccc2NC(=O)NC2CCCCC2)cc1,-20,i,-8,-44,4,-1,-13,-6,
CC(C)NC(=O)COc1coc(CN2CCN(c3ccccc3)CC2)cc1=O,-10,i,-14,-5,-2,-2,-14,-1,
O=c1[nH]c2ccccc2c(O)c1SCCO,.,i,0,24,-3,-1,-9,10,
O=C(NC(=S)N1CCN(Cc2ccccc2)CC1)c1cccnc1,-26,i,-11,7,-2,3,-11,2,
Cc1ccccc1-c1nc(CN2CCN(C(=O)c3ccco3)CC2)c(C)o1,-11,i,11,-3,1,-5,-3,18,
Cc1ccc(-c2nc3cccnc3o2)cc1NC(=O)COc1ccc(Cl)cc1C,-21,i,-2,-21,-7,-5,-13,3,
NS(=O)(=O)c1ccc(NC(=O)c2ccc3c(c2)OCO3)cc1,-11,i,-6,-7,-2,0,-11,-8,
COc1ccc(C2CC(c3ccccc3)=NN2C(=O)COC(=O)C2(C)CC2(Cl)Cl)cc1 (configuration not stated),.,i,-10,-5,-5,-6,.,-8,
CCCCN(C(=O)C1CC(=O)N(c2ccc3c(c2)OCCO3)C1)c1c(N)n(CCCC)c(=O)[nH]c1=O (configuration not stated),-10,i,.,5,-1,1,-7,.,
CCc1nc2ccc(C(=O)NCCCN3CCCC3=O)cn2c1N(C)CCC(C)C,-4,.,.,17,5,5,.,.,
CCOc1ccc(OCCC(=O)OCC(=O)Nc2ccc(C)c(S(=O)(=O)N3CCCCC3)c2)cc1,.,i,.,1,9,4,-1,.,
COc1ccc(CCNC(=O)CN(C)S(=O)(=O)c2cccs2)cc1OC,-6,i,-6,.,8,9,-1,-6,
Cc1ccc(NC(=O)/C=C/c2cccc([N+](=O)[O-])c2)nc1,.,.,0,0,0,0,16,3,
COc1ccc(C(=O)Nc2cccc3cccnc23)cc1OC,-15,i,0,.,7,-4,0,-14,
CC(C)c1ccc(CNc2nc(NCC3CC3)nc3ccsc23)cc1,-3,.,.,26,22,-27,.,.,
CCCCc1n[nH]c2c1/C(=N/O)CC(c1ccccc1)C2 (configuration not stated),-25,i,2,.,-14,-11,52,0,
Oc1ccc(/C=N/Nc2cc(N3CCCC3)nc(N3CCCC3)n2)cc1O,.,i,105,8,1,-1,-3,15,eIF4H FP inh retest=8;PABP FP inh retest=1
CCCSCCCNC(=O)Cn1cc2c(n1)CCCCC2,-18,i,-10,-6,3,5,-8,-10,
Cc1cccc(NCC(=O)NNC(=S)Nc2ccccc2)c1,.,i,-1,7,1,-2,-11,0,
Cc1cc(C(=O)OCC(=O)Nc2cc(S(=O)(=O)N(C)C)ccc2Cl)c2ccccc2n1,.,i,-3,-5,0,6,4,?,
Cc1cc(NC(=O)CSc2nnc(Nc3ccccc3C)s2)no1,.,i,-7,12,-2,4,-9,-7,
Cc1cnn(Cc2ccccc2)c1N,605*,i,1,-56,3,-1,-15,4,

# Source: PubChem BioAssay
